Source: PubChem
FGF22 binding: shifts melting point of recombinant human FGF22; 340,000 compounds, 1.5% hits; AID 651658; recombinant FGF22 thermal shift, SYPRO orange fluorescence; percent of sucrose octasulfate shift, DMSO zero; calls only at 9.99 µM; Q9HCT0;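 active = melting point raised past a set limit in the mean and every replicate; inconclusive = no clear call; three in four hits are not shown here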
Target sequence (Q9HCT0 whole entry, looked up): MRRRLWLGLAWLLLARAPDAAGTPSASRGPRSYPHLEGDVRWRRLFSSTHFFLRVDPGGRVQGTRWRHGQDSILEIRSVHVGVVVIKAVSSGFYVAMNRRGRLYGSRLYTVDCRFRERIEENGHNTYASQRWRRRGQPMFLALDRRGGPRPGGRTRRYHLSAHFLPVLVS
Vif TR-FRET: inhibitors of Vif binding to APOBEC3G peptide, primary screen, biochemical, TR-FRET, GST-Vif 1-94, biotin-A3G peptide, dose response retest (AID 1117319); TR-FRET GST-Vif / biotin-A3G peptide binding; higher % means a stronger effect; test concentration not given here; strong numbers were not always called active; one-dose inhibition, %; IC50 in µM for titrated hits; 260,000 compounds, 0.57% hits;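 active = above the screen mean plus three standard deviations and confirmed in dose response; inconclusive = results disagree or hit not tested in dose response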;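 note: Vif residues 1-94 fused to GST binding biotinylated APOBEC3G peptide 110-148; 0% = full assay without inhibitor and 100% = GST in place of GST-Vif; retest series ran down from 100 µM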
ALR inh: blocks human ALR sulfhydryl oxidase activity; P55789; purified ALR, DTT oxidation, H2O2 HRP-luminol luminescence; inhibition, % (no concentration beside the values); 290,000 compounds, 3.8% hits;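 active = mean and each replicate at 75% or more; inconclusive = only one of the two met; inactive = neither met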;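 note: stock transfer was 7.5 nL into about 7.5 µL; 0% = neutral wells and 100% = wells with inactivated enzyme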
Target sequence (P55789 whole entry, looked up): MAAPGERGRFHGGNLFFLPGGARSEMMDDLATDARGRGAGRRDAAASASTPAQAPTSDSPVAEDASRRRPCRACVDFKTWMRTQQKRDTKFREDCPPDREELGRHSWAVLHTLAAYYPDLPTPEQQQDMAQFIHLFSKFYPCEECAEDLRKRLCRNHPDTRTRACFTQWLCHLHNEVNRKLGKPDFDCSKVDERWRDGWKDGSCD
AF4-AF9 inh: MLL-AF4/AF9 protein interaction inhibition | inhibition, % at 10 µM | 350,000 compounds, 0.47% hits | AlphaScreen, biotin-AF4 peptide binding to FLAG-AF9;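 active = every replicate reaching a set inhibition limit, whatever the replicate mean, cut at about 25% in these data; inconclusive = mean inhibition reaches that limit but some replicates miss it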;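 note: 0% = plate neutral control median and 100% = total signal loss; the record names both 10 and 1 µM as test concentration; the first replicate is given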
Target sequence (P42568 whole entry, looked up): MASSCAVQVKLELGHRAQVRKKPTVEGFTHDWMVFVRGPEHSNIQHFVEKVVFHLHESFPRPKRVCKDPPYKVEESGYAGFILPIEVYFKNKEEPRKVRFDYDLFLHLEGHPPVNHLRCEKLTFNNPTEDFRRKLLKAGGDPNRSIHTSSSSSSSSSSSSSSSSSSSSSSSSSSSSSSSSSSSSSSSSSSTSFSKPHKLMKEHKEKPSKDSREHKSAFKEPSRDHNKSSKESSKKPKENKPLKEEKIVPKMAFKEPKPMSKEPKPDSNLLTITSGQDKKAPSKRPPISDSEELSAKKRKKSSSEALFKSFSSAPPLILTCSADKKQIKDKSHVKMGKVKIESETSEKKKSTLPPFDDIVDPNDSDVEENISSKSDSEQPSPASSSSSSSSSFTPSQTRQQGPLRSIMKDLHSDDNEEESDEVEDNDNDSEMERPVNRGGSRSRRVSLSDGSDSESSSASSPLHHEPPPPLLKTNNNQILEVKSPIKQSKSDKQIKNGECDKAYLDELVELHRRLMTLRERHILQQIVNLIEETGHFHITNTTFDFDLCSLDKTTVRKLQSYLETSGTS
rRNA inh HTS: inhibits bacterial ribosomal RNA function over humanized ribosomes; E. coli WT GFP vs humanized-ribosome RFP mutants, fluorescence, 24 h; hits give low values; DMSO median 0, no signal -100; GFP signal change (wild-type ribosome), % (no concentration beside the values); 350,000 compounds, 1.6% hits; AID 720706;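 active = significant combined selectivity score with lowered wild-type GFP, culture density cut under 30%, mutant RFP and density less affected; inactive = any of these conditions unmet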; note: one replicate is shown; some compounds called inactive have numbers as strong as hits
Ecoli growth: E. coli growth inhibition. 330,000 compounds, 0.21% hits. AID 1053175. OD600 absorbance (test concentration not listed). Escherichia coli growth, OD600, 23 h; hits give low values;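 active = OD600 absorbance below the run mean of sample wells minus 3.6 SD, in any replicate, cut at about 0.56 in these data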;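 note: stock transfer was 300 nL into about 60 µL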
HNF4A DNA FP: change in binding of human HNF4 alpha to DNA; P41235; HNF4a-FITC DNA binding, fluorescence polarization, 1 h; activity change, % at 10 µM; 360,000 compounds, 0.3% hits; AID 1224865; in the data active = activity change above about 30%, passing the limit was not always enough;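 note: controls were the assay level and a saturating level of protein; the project sought stronger binding though the title names inhibitors; some compounds called inactive have numbers as strong as hits; positive values seem to mean higher polarization but the record does not say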
rRNA inh HTS OD600: second read-out of rRNA inh HTS, no call of its own (marks repeat the call); OD600 change, %; measured here: OD600 growth;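 optical density of the mix in the first replicate; 0 = DMSO median and -100 = no signal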
rRNA inh HTS RFP: also measured in rRNA inh HTS; calls as there; RFP signal change, %; measured here: RFP humanized mutant strains;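 first replicate; 0 = DMSO median and -100 = no signal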
Starred values were filed as active, the others as inactive; i = inactive; u = inconclusive; x = no result given.

SMILES	FGF22 binding	Vif TR-FRET	ALR inh	AF4-AF9 inh	rRNA inh HTS	rRNA inh HTS OD600	rRNA inh HTS RFP	Ecoli growth	HNF4A DNA FP
O=C(NCC(=O)N(c1cccc(F)c1)C(C(=O)NC1CCCC1)c1cccnc1)c1ccco1 (stereo not drawn)	i	-2.4%	8.3	-2.5	7.9	5.8	-4.7	0.615	0.8
CCN(CC)CCCN1C(=O)C(=O)/C(=C(/O)c2ccc(Cl)cc2)C1c1ccccn1 (stereo not drawn)	x	x	-3.3	x	x	x	x	0.766	-3.0
Cc1ccc(S(=O)(=O)N2C[C@H]3N(C(=O)OC(C)C)N(C(=O)OC(C)C)C[C@H](OC(=O)NCc4ccccc4)[C@@]3(O)C2)cc1	i	-0.2%	x	1.4	-9.8	-17.3	1.3	x	-3.5
CSc1ccc(CCNC(=O)CCc2nnc3ccc(N4CCCCC4)nn23)cc1	i	x	-3.2	-3.6	-7.1	-16.2	0.4	0.761	1.2
CC(C)(C)c1ccc(C(=O)OCC(=O)NCc2ccco2)cc1	x	-2.7%	2.9	3.3	9.1	-28.4	-3.2	0.676	-2.7
O=C(NCC1CCCO1)c1sc2ccccc2c1Cl (stereo not drawn)	x	-1.3%	-2.3	x	x	x	x	0.695	-3.5
O=C1c2ccc(Cl)cc2S(=O)(=O)c2cccc(C(=O)N3CCN(c4ccc(Cl)cn4)CC3)c21	i	x	-2.6	-0.4	-12.2	-6.2	-5.7	x	1.4
CC(=O)c1c(C)[nH]c(C(=O)COC(=O)CN2C(=O)C3CCCCC3C2=O)c1C (stereo not drawn)	i	x	5.9	-0.3	3.0	7.8	0.5	0.693	1.2
COc1ccc(NC(=O)N(C)C[C@@H]2Oc3ccc(NS(=O)(=O)c4c(C)noc4C)cc3C(=O)N([C@H](C)CO)C[C@H]2C)cc1	i	x	x	-1.7	4.7	4.5	-0.6	x	x
COc1ccc(OC)c(NC(=O)CCNS(=O)(=O)c2cccc3nonc23)c1	i	-4.2%	x	2.0	13.1	11.1	0.3	0.695	1.1
Cc1ccc(Nc2nc(N)nc(CN3CCCCCC3)n2)c(C)c1	x	0.7%	-6.4	x	x	x	x	0.743	-0.2
O=C(OCC(=O)c1ccccc1Br)c1ccncc1	i	x	-2.6	-1.0	7.8	8.5	6.4	0.719	-1.0
Cn1ccc(C(=O)OCC(=O)Nc2cccc3ccccc23)n1	i	2.5%	43.0	-4.2	20.2	-1.0	3.0	0.662	-2.5
Cc1cc2nc(-c3ccc[nH]c3=O)n(Cc3cccc(F)c3)c2cc1C	i	-5.7%	x	-5.8	-7.5	-3.9	3.0	0.702	-0.9
CC1CCN(CCCn2c(=S)[nH]c3c(sc4ccccc43)c2=O)CC1	i	-13.3%	25.4	-9.0	10.3	3.5	4.6	0.709	5.3
CCOC(=O)N1CCC(N(CCN(C)C)C(=S)Nc2cc(Cl)cc(Cl)c2)CC1	i	-7.7%	6.4	-2.9	10.7	7.0	-0.9	0.737	-0.7
CCC(CC)C(=O)c1c[nH]c(C(=O)OC)c1	i	x	-7.5	-0.2	-11.7	-3.4	-5.0	0.64	4.8
Nc1c(C(=O)NCCc2ccccc2)nnn1Cc1ccccc1	x	24.1%	-5.3	x	x	x	x	0.716	-2.6
O=C(NC[C@@H]1[C@@H](c2ccccc2)[C@H](CO)N1Cc1ccccn1)C1CCCC1	i	x	x	-19.7	1.2	5.5	0.3	x	x
Cc1noc(C)c1C(=O)Nc1nc(-c2cccs2)cs1	i	-7.0%	u	-0.2	-13.2	-14.9	0.1	0.682	2.7
COc1ccccc1-c1cnc(C(O)c2ccc(Cl)c(F)c2)[nH]1 (stereo not drawn)	i	x	x	-4.1	-50.5	-76.8	-18.4	x	-0.1
COc1cc(NC(=O)CCc2c(C)nc3nc(C)nn3c2C)cc(OC)c1	x	u	-9.4	x	x	x	x	0.73	0.3
CC1=C(C(=O)OC(C)C)C(c2cccs2)N2C(=O)C(C)SC2=N1 (stereo not drawn)	x	-1.2%	-4.3	x	x	x	x	0.717	-2.5
Cc1ccc(C)c(N(CC(=O)NC(C)(C)C)C(=O)CNC(=O)c2cccs2)c1	x	1.9%	1.9	11.6	17.3	5.7	-3.7	0.698	1.4
O=C1OC(C(=O)NCc2ccccc2)Cc2ccccc21 (stereo not drawn)	i	-5.6%	x	-1.1	22.0	6.8	-0.4	0.64	3.9
CN(C)S(=O)(=O)N1CCC(Oc2ccc(C(=O)NC3Cc4ccccc4C3)cc2)CC1	i	x	-5.1	-9.3	6.0	12.1	1.0	0.721	0.7
CN(CC(=O)Nc1ccc(F)c(F)c1F)C(=O)Cc1ccc2c(c1)OCCO2	i	x	5.5	-0.5	2.0	11.1	2.7	0.694	0.8
CCN(CC)S(=O)(=O)c1ccc(OCC(=O)NC(=O)Cc2ccccc2)c([N+](=O)[O-])c1	i	1.5%	-38.8	5.8	-4.0	-5.0	-2.8	x	0.8
CCCC1c2ccc(C)n2CCN1C(=O)Nc1ccc(F)cc1 (stereo not drawn)	x	10.5%	-7.9	x	x	x	x	0.724	4.4
CCC(=O)Nc1cccc(NC(=O)CSc2nnc(-c3ccc(NS(C)(=O)=O)cc3)n2C)c1	i	12.8%	-6.5	1.0	-0.2	10.6	2.3	0.651	-2.4
CO[C@@H]1CN(C)C(=O)c2cc(NC(=O)C3CC3)ccc2OC[C@H](C)N(C(C)=O)C[C@@H]1C	i	x	x	1.9	1.9	3.0	-1.3	x	x
CCN(CC(=O)Nc1c(F)cccc1F)C(=O)CSCC(=O)Nc1ccc(OC)cc1	i	-2.7%	50.6	-3.8	-1.7	1.5	0.3	0.566	5.3
CCC(=O)Nc1ccc2c(c1)C(=O)N(C)C[C@@H](OC)[C@H](C)CN(C(=O)Cc1cccnc1)[C@H](C)CO2	i	x	x	-2.2	5.1	11.0	-2.4	x	x
COc1ccc(S(=O)(=O)Nc2ccc3c(c2)C(=O)N([C@H](C)CO)C[C@H](C)[C@H](CN(C)C(=O)C2CCCCC2)OCCCC[C@H](C)O3)cc1	i	x	x	2.3	-5.5	-2.0	0.7	x	x
CCSc1ccc([C@@H]2[C@@H]3C(=O)N(CC)C(=O)[C@@H]3[C@]3(C(=O)OC)CCCN23)cc1	i	x	2.1	1.2	1.3	10.4	0.3	x	0.3
Cc1cc(C(=O)CN2CCCC2)c(C)n1-c1ccc(Cl)cc1	i	1.4%	8.0	4.2	x	x	x	0.713	-0.6

Ordered by molecular weight (rising): part of the list above.
SMILES	FGF22 binding	Vif TR-FRET	ALR inh	AF4-AF9 inh	rRNA inh HTS	rRNA inh HTS OD600	rRNA inh HTS RFP	Ecoli growth	HNF4A DNA FP
CCCC1c2ccc(C)n2CCN1C(=O)Nc1ccc(F)cc1 (stereo not drawn)	x	10.5%	-7.9	x	x	x	x	0.724	4.4
Cc1cc(C(=O)CN2CCCC2)c(C)n1-c1ccc(Cl)cc1	i	1.4%	8.0	4.2	x	x	x	0.713	-0.6
CO[C@@H]1CN(C)C(=O)c2cc(NC(=O)C3CC3)ccc2OC[C@H](C)N(C(C)=O)C[C@@H]1C	i	x	x	1.9	1.9	3.0	-1.3	x	x
CCC(=O)Nc1ccc2c(c1)C(=O)N(C)C[C@@H](OC)[C@H](C)CN(C(=O)Cc1cccnc1)[C@H](C)CO2	i	x	x	-2.2	5.1	11.0	-2.4	x	x

The list continues:
SMILES	FGF22 binding	Vif TR-FRET	ALR inh	AF4-AF9 inh	rRNA inh HTS	rRNA inh HTS OD600	rRNA inh HTS RFP	Ecoli growth	HNF4A DNA FP
Cc1ccn2cc(CCNC(=O)C3CC=CCC3C(=O)O)nc2c1 (stereo not drawn)	x	x	-5.9	0.7	12.8	10.3	3.4	0.684	1.6
O=CNc1c(Br)cc2c(c1Br)Cc1cc(Br)ccc1-2	i	-49.6%	x	-21.2	3.0	14.0	0.1	0.693	-1.5
CCNC(=O)Oc1ccc(-c2csnn2)cc1	i	-7.4%	99.0*	-8.4	32.9	17.4	0.8	0.626	1.9
C[C@H](CO)N1C[C@H](C)[C@H](CN(C)S(=O)(=O)c2ccc3c(c2)OCCCO3)OCc2cn(nn2)CCCC1=O	i	x	x	-2.3	-7.2	-6.4	-1.5	x	x
Cc1ccc(C(=O)NC2CCN(CC(=O)NCc3cccs3)CC2)cc1	i	0.8%	-1.2	-1.2	3.1	2.3	-4.6	0.705	0.2
CCn1c(=O)c2c3c(sc2n2c(=S)[nH]nc12)CCC3	x	u	86.8*	x	x	x	x	0.747	2.0
Nc1nc(SCC(=O)N2CCCc3ccccc32)n[nH]1	i	x	x	1.5	0.3	3.0	-1.5	0.664	-0.1
O=C(CN(Cc1ccc(Cl)cc1)C(=O)CNS(=O)(=O)c1ccccc1)NCC1CCCO1 (stereo not drawn)	i	5.6%	x	-7.5	0.0	-0.8	0.5	0.68	0.4
CCN(CC)S(=O)(=O)c1cc(-c2nnc(-c3ccc(Br)cc3)o2)ccc1Br	x	-11.6%	-1.7	x	x	x	x	0.796	-1.2
COc1ccc(Cc2c(-c3cccc(Cl)c3)nc3cc(C)c(Br)c(C)n23)c(C)c1	i	x	x	0.6	13.1	7.9	25.3	x	7.5
CCCCN(C(=O)c1cccc(S(=O)(=O)N2CCN(Cc3ccccc3)CC2)c1)c1ccccc1	i	x	-7.1	0.7	x	x	x	0.719	0.1
OCC[C@H]1C[C@@H](O)[C@H](O)[C@@]2(Cc3ccccc3CO2)O1	i	x	1.5	-1.4	13.9	6.6	7.0	x	0.7
Cc1ccccc1NC(=S)N(C)Cc1cn(C)c2ccccc12	i	25.6%	-4.6	-2.8	-7.7	-4.3	-1.8	x	1.4
CC1CCN(C(=O)C2CCCN(S(=O)(=O)c3ccc4c(c3)CC(C)N4C(=O)C3CC3)C2)CC1 (stereo not drawn)	i	x	-3.9	-3.6	-17.2	-51.2	-4.2	0.727	2.1
O=C(CCNC(=O)c1ccco1)Nc1ccc(Cl)c(C(F)(F)F)c1	i	x	-0.7	-4.4	-8.8	-23.6	29.4	0.63	2.3
COc1ccc(S(=O)(=O)N2CCN(Cc3cccs3)CC2)cc1OC	i	x	8.1	1.0	0.7	-3.5	-1.2	0.691	3.4
O=C(COC(=O)CCC(=O)N1CCOCC1)Nc1ccc(Br)cc1Br	i	3.8%	-3.4	0.4	2.0	4.6	-0.6	0.692	-1.4
N=C1C(c2nc3ccccc3c(=O)[nH]2)=C(O)CN1CCO	x	-10.7%	x	x	x	x	x	0.727	-0.9
COc1cc2c(cc1OC)CN(Cc1ccc(C)s1)CC2	x	9.4%	-0.6	-2.1	x	x	x	0.738	1.8
Oc1ccc(N=Cc2c(O)ccc3ccccc23)cc1	i	-3.9%	99.5*	3.3	-3.9	-5.0	-0.1	0.684	72.0*
COc1cc(C(=O)NCc2cn3cccc(C)c3n2)cc(OC)c1OC	i	1.1%	-7.2	1.2	2.4	3.4	0.9	0.706	5.9
O=C(OCC(=O)N1CCc2ccccc21)c1ccccc1	x	4.7%	-1.5	x	x	x	x	0.718	1.7
O=C(N/N=C/c1ccc([N+](=O)[O-])o1)c1cn(-c2ccccc2)nc1-c1ccccc1	i	-4.8%	-29.7	0.3	1.4	0.8	0.0	x	8.0
O=C(CCl)NNc1cccc(Cl)n1	x	2.4%	98.1*	x	x	x	x	0.794	3.7
CC(=O)Nc1cc2c(cc1C(C)=O)OCCO2	x	14.3%	-5.2	x	x	x	x	0.796	-1.7
Cc1cccc(-c2nc(Nc3cccc(O)c3)c3ccccc3n2)c1	i	x	19.2	0.8	-59.2	-79.3	-17.0	0.652	20.8

The list is partial. The share of hits here may be higher or lower than overall.
